# Screens as filed in PubChem BioAssay.
# Casp1 inh: allosteric or competitive inhibitors of human caspase-1. P29466. Caspase-1 enzyme, Ac-WEHD-AFC fluorogenic rate. Potency, µM (highest dose often 57.5 µM), without a hit: top-dose activity change, negative = inhibition, usual class: inhibitors. 75,000 tested, 0.03% active. AID 900;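 note: potency is the fitted concentration of half-maximal effect; plate controls were vehicle for no effect and no substrate for full effect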
# BRCT inh red: disrupts BRCA1 BRCT binding to phosphoprotein, red fluorophore readout. P38398. BRCT-phosphopeptide binding, red fluorescence polarization. Potency, µM (titrated, usually from 76.9 µM), for inactives: at the top dose activity change, negative = inhibition, actives largely listed as inhibitors. 75,000 tested, 0.03% active; note: % is set by controls: 0 for no effect and ±100 for the full control effect
#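 Fluorescence polarization: 100 nM His-tagged BRCA1 BRCT with 100 nM TAMRA-labelled phospho-BACH1 decapeptide, phosphate buffer pH 7.3 with 150 mM NaCl, DTT, 0.01% Tween 20; 12 min RT. Binding inhibition seen as FP decrease.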
# CRE Fsk mod: modulators of forskolin-stimulated CRE signaling in CHO cells | Potency, µM (top dose mostly 38.2 µM), for inactives: at the top dose activity change, negative = inhibition, actives largely listed as activators | AID 662 | CHO CRE-bla reporter (cAMP response element driving beta-lactamase), forskolin EC10, beta-lactamase ratio | 71,000 tested, 2.5% active; active = well fitted activation curve with a large enough effect in the signal ratio, with a control signal flat, not every such curve was filed as active; inconclusive = small, poorly fitted or top-dose-only effect, or effect the other way, or a change in a side signal; the % refers to the signal ratio; note: potency is the fitted concentration of half-maximal effect; % of control where 0% means no effect
#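 CRE-bla CHO reporter cells treated with compound titration plus EC10 NKH 477 (water-soluble forskolin), incubated 3 h at 37 °C; CCF4 loading 2 h at room temperature, 460/530 nm emission ratio read, AC50 values derived for positive or negative modulators.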
# ERK AVP inh: vasopressin-driven ERK pathway inhibition; HEK293-V1b, vasopressin-stimulated pERK AlphaScreen; Potency, µM (highest dose often 57.5 µM), for the others: at the highest dose activity, negative = inhibition, most hits filed as inhibitors; 72,000 tested, 0.99% active; note: potency is the fitted concentration of half-maximal effect; % is set by controls: 0 for no effect and ±100 for the full control effect; nearly all actives have a fitted effect of over 55% in size
#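 V1b-HEK293 cells; cpd 30 min 37C; 25 nM vasopressin 5 min; lyse 10 min; AlphaScreen beads 5 hr RT. Normalized to DMSO basal and 25 nM vasopressin; AC50 by Hill fit.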
# BRCT PPI green: inhibitors of human BRCA1 BRCT-phosphoprotein interaction (green fluorophore). BRCA1 BRCT-phosphopeptide binding, green fluorescence polarization. 75,000 tested, 0.05% active. P38398. Potency, µM (highest dose often 76.9 µM), without a hit: at the top dose activity change, negative = inhibition, hits mostly inhibitors. AID 875;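 note: potency is the fitted concentration of half-maximal effect; plate controls were peptide without protein for full effect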
#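 Compounds were incubated for 12 min at room temperature with a complex of 100 nM fluorescein-tagged pBACH1 decapeptide and 250 nM His-tagged BRCT protein. Buffer was phosphate pH 7.3 with EDTA, DTT and Tween 20. Disruption of binding lowers the polarization signal.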
# Casp7 inh: blocks human caspase-7 allosterically or competitively; P55210; recombinant caspase-7, Ac-DEVD-AFC fluorescence rate; Potency, µM (highest dose often 57.5 µM), inactives show top-dose activity change, negative = inhibition, actives largely listed as inhibitors; 75,000 tested, 0.02% active; AID 889; active = well fitted inhibition curve with a large enough effect in the main read-out, with a control signal flat, not every such curve was filed as active; inconclusive = small, poorly fitted or top-dose-only effect, or a change in a side signal; note: potency is the fitted concentration of half-maximal effect; % of control where 0% means no effect
# Target sequence (P55210 24-198 limits assumed): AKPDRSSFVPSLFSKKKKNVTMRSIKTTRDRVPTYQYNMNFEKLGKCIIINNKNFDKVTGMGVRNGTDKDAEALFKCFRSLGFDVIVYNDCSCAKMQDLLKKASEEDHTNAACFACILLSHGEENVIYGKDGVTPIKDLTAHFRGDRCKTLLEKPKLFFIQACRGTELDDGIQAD
# Target sequence (P55210 207-303 limits assumed): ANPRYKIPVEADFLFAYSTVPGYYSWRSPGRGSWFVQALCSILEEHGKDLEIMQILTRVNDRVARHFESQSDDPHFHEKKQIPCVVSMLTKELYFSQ
# Active calls of the source: *; ? = inconclusive; · = not tested or not shown; [ ] = dose if it differs, or a comment. Unless noted, calls come from the whole dose curve; as a rule, active = well fitted curve in the direction sought with a large enough effect; inconclusive = small, poorly fitted or top-dose-only effect, or another doubt; inactive = no such curve, though single readings can be large; an effect the other way counts as inactive or inconclusive.
1) CC(=O)N1CCN(c2ccc(OC[C@@H]3CO[C@@](Cn4ccnc4)(c4ccc(Cl)cc4Cl)O3)cc2)CC1
2) S=C1NCCN1
3) O=C1CC2OCC=C3CN4CC[C@]56c7ccccc7N1[C@H]5[C@H]2C3C[C@H]46 (stereo partly drawn)
4) O=C(O)CCCc1ccc(N(CCCl)CCCl)cc1
5) CN1[C@@H]2CC(OC(=O)[C@H](CO)c3ccccc3)C[C@@H]1[C@H]1O[C@H]12 (stereo partly drawn)
6) O=C1CC2OCC=C3CN4CC[C@@]56c7ccccc7N1C5C2C3CC46 (stereo partly drawn)
7) CCn1cc(C(=O)O)c(=O)c2ccc(C)nc21
8) C[C@@H](Cc1ccc(O)cc1)NC[C@@H](O)c1cc(O)cc(O)c1
9) CN1C[C@H](CNC(=O)OCc2ccccc2)C[C@H]2c3cccc4c3c(cn4C)C[C@@H]21
10) C[C@@H]1O[C@H](O[C@@H]2C[C@@H](O)[C@]3(CO)[C@H]4[C@H](O)C[C@]5(C)[C@@H](C6=CC(=O)OC6)CC[C@@]5(O)[C@@H]4CC[C@]3(O)C2)[C@@H](O)[C@H](O)[C@H]1O
compound no. | 1 | 2 | 3 | 4 | 5 | 6 | 7 | 8 | 9 | 10
Casp1 inh | -2%[25.7 µM] | -3% | 0% | 2% | -1% | 2% | 2% | -5%[25.7 µM] | -4% | 0%
BRCT inh red | 0.1%[34.4 µM] | 1.3% | 2.0% | -2.5% | 0.2% | 1.7% | 2.2% | -0.1%[34.4 µM] | 0.6% | -1.2%
CRE Fsk mod | 6%[17.1 µM] | -7% | · | ? | -2% | · | 9% | 3%[17.1 µM] | ? | -6%
ERK AVP inh | -14%[25.7 µM] | 2% | 6% | 3% | 4% | -9% | ? | ? | 28% | 2%
BRCT PPI green | -1.3%[34.4 µM] | -3.2% | 0.7% | 1.6% | -2.4% | 1.6%[3.08 µM] | -2.3%[3.08 µM] | -2.1%[34.4 µM] | -6.5% | -1.7%
Casp7 inh | 1%[25.7 µM] | 0% | 0% | 0% | 1% | -2% | 1% | -7%[25.7 µM] | -7% | 0%

# A draw from above in order of formula weight, largest number first.
10) C[C@@H]1O[C@H](O[C@@H]2C[C@@H](O)[C@]3(CO)[C@H]4[C@H](O)C[C@]5(C)[C@@H](C6=CC(=O)OC6)CC[C@@]5(O)[C@@H]4CC[C@]3(O)C2)[C@@H](O)[C@H](O)[C@H]1O
1) CC(=O)N1CCN(c2ccc(OC[C@@H]3CO[C@@](Cn4ccnc4)(c4ccc(Cl)cc4Cl)O3)cc2)CC1
9) CN1C[C@H](CNC(=O)OCc2ccccc2)C[C@H]2c3cccc4c3c(cn4C)C[C@@H]21
6) O=C1CC2OCC=C3CN4CC[C@@]56c7ccccc7N1C5C2C3CC46 (stereo partly drawn)
4) O=C(O)CCCc1ccc(N(CCCl)CCCl)cc1
5) CN1[C@@H]2CC(OC(=O)[C@H](CO)c3ccccc3)C[C@@H]1[C@H]1O[C@H]12 (stereo partly drawn)
7) CCn1cc(C(=O)O)c(=O)c2ccc(C)nc21
2) S=C1NCCN1
compound no. | 10 | 1 | 9 | 6 | 4 | 5 | 7 | 2
Casp1 inh | 0% | -2%[25.7 µM] | -4% | 2% | 2% | -1% | 2% | -3%
BRCT inh red | -1.2% | 0.1%[34.4 µM] | 0.6% | 1.7% | -2.5% | 0.2% | 2.2% | 1.3%
CRE Fsk mod | -6% | 6%[17.1 µM] | ? | · | ? | -2% | 9% | -7%
ERK AVP inh | 2% | -14%[25.7 µM] | 28% | -9% | 3% | 4% | ? | 2%
BRCT PPI green | -1.7% | -1.3%[34.4 µM] | -6.5% | 1.6%[3.08 µM] | 1.6% | -2.4% | -2.3%[3.08 µM] | -3.2%
Casp7 inh | 0% | 1%[25.7 µM] | -7% | -2% | 0% | 1% | 1% | 0%

# An excerpt; rates above refer to the full screens.
